AID504770 = growth inhibitors of E. coli YBA685 in a screen for V. cholerae RctB (chromosome II replication) inhibitors | AID 504770 | E. coli YBA685 rctB-dependent plasmid, OD600 growth, 3 h; hits give low values | z-score (concentration not given with the values) | 0.27% of 130,000 active;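 active = z-score under -2 on both plates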;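 note: wells of about 30 µL received 100 nL stock; score is relative to mean and SD of the test wells; the first replicate is given; strong numbers were not always called active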
CapD inh = inhibitors of Bacillus anthracis CapD enzyme. 0.23% of 140,000 active. purified CapD enzyme, fluorescence intensity read-out; hits give low values; some hits fall short of the stated cut. z-score (test concentration not listed). AID 492967;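 active = z-score under -4 in either of two replicates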;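 note: stock transfer was 100 nL into about 40 µL; score is relative to mean and spread of the plate; one replicate is shown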
* marks the source's active call; other numbers are inactive results; i = inactive; x = not tested or not shown.

Every second line gives: AID504770	CapD inh
CC(=O)Nc1nc(C)c(CCC(C)C)c(=O)[nH]1
→ 0.4	0.15
CC1SCC(NC(=O)c2ccc(Cl)cc2)CS1 (configuration not stated)
→ 1.8	0.005
Cc1ccc(Cc2nn3c(C(=O)c4cccs4)nn(-c4ccc(Cl)cc4)c3nc2=O)cc1
→ 0.1	-0.76
CN(C)c1ccc(/C=C/C(=O)/C=C/c2ccco2)cc1
→ 2	-1.3
O=S(=O)(NCC(c1ccco1)S(=O)(=O)c1ccccc1)c1ccccc1 (configuration not stated)
→ -1.3	x
Cc1ccc(C(=O)OC2=C(c3ccccc3)C(=O)c3ccccc3C2=O)cc1
→ -0.25	0.17
O=C1c2ccccc2C(=O)N1CSC1=NCCS1
→ -0.25	x
COc1ccc(NC(=O)OCC(C)C)cc1OC
→ -0.6	-0.25
Cc1nn(Cc2ccccc2)cc1C(=O)O
→ 1	x
Cc1ccc(/C=C/C(=O)NCCc2c[nH]c3ccccc23)o1
→ -0.2	x

Single records, from the list above. Order of values: AID504770	CapD inh
Results for `CC1SCC(NC(=O)c2ccc(Cl)cc2)CS1` (configuration not stated) → 1.8	0.005
Results for `CC(=O)Nc1nc(C)c(CCC(C)C)c(=O)[nH]1` → 0.4	0.15

Further entries.
Every second line gives: AID504770	CapD inh
CCC(=O)Nc1cc(C(=O)NCC2CCCN2CC)c(OC)cc1N(C)C (configuration not stated)
→ 0.05	0.035
CN(C)CCSc1nc2ccccc2[nH]1
→ 0.05	0.99
COc1cc(C)cc(CN2CC=C(c3ccccc3)CC2)c1O
→ -0.05	x
Nc1cccc(-c2cnco2)c1
→ -2.5	7.8
S=C(NCc1ccccc1)N/N=C/c1ccccn1
→ -0.7	x
CC1CCCC(C)N1NC(=O)Cc1ccccc1 (configuration not stated)
→ -0.25	x
COc1ccc(CN2C(=O)c3ccccc3C2=O)cc1C(=O)OCc1nnc(-c2ccccc2)o1
→ 0.7	x
CCOc1cc(C=C2C(=O)NC(=S)NC2=O)ccc1OCc1ccccc1Cl
→ x	-1
COC(=O)CN1C(=O)Cc2ccccc2C1=O
→ -0.2	-0.2
CC(C)(C)c1ccc(C(=O)n2cc(Cl)cn2)cc1
→ -0.35	0.11
O=C(O)CCCN1C(=O)C(=O)/C(=C(/O)c2ccccc2)C1c1ccc(F)cc1 (configuration not stated)
→ x	-0.26
CCN(CC)S(=O)(=O)c1ccc(C(=O)N2CCN=C2SC)cc1
→ 1.3	-0.53
CC(C)C12CN3CC(C(C)C)(CN(C1)C3c1cc(Br)ccc1O)C2=O (configuration not stated)
→ x	0.6
CC(C)C(=O)Nc1sc2c(c1C(=O)OCc1nnc3n(C)c(=O)c4ccccc4n13)CCC2
→ 1.6	x
Cc1c(CN2CCCC(C)C2)c(=O)n(-c2ccccc2)n1C (configuration not stated)
→ x	0.035
Nc1cccc(CCc2cccnc2)c1
→ 1.8	-0.12
N#Cc1c(F)cccc1NCCc1ccc(Cl)cc1
→ -0.2	8.3
Cc1ccc(S(=O)(=O)NC2c3ccccc3Oc3ccccc32)cc1
→ -0.05	-0.35
C=CCNC(=O)c1cc(C)nc2ccccc12
→ 0.7	x
Cc1ccc(C(=O)N=C(N)c2cccs2)cc1
→ -0.4	-1.6
CN(C)C(=O)c1ccccc1NC(=O)Nc1ccccc1
→ -0.65	-0.42
CNC(=O)Cn1ncc2c3ccccc3n(Cc3cc(C)ccc3C)c2c1=O
→ 1.1	0.15
O=C(CSc1nc2c(c(=O)n1-c1ccccc1)SCC2)Nc1nccs1
→ 2.5	x
O=C(c1ccccc1)N(c1ccc2oc3c(c2c1)CCCC3)S(=O)(=O)c1ccccc1
→ 1.2	-0.03
CC(C)CCn1c(CC(C)(C)C)nc2ccccc21
→ -0.35	-0.45
CSc1sc(C(=O)NNC(=O)OCCN2CCN(CCCN3c4ccccc4Sc4ccc(Cl)cc43)CC2)cc1-c1nc(C)cs1
→ x	0.27
CC(C)Oc1ccc(NS(=O)(=O)c2ccc3oc(=O)ccc3c2)cc1
→ x	-0.18
O=C(Nc1nccs1)c1ccc2c(=O)n3c(nc2c1)CCCCC3
→ -0.1	x
Cn1ccnc1SC(C(=O)Nc1ccccc1)C(=O)Nc1ccccc1
→ -1.1	x
CCOc1ccc(-n2c(-c3ccccc3)c[n+]3c2CCC3)cc1
→ -0.3	-0.85
O=C(c1ccc2c(c1)N(Cc1ccccc1)C(=O)c1ccccc1S2=O)N1CCOCC1 (configuration not stated)
→ 0.45	-0.32
CC1Cc2cc(C(=O)COC(=O)c3n[nH]c(=O)c4ccccc34)ccc2N1S(C)(=O)=O (configuration not stated)
→ 0.25	x
CN(C)c1nc(N(C)C)n(-c2ccccc2)n1
→ -0.4	-0.005
C=CCNC(=O)c1ccc(Cl)c(Cl)c1
→ -0.65	0.55
COC(=O)Nc1ccc(S(=O)(=O)N2CCC(C(=O)Nc3ccc(F)cc3)CC2)cc1
→ x	0.045
Clc1ccc(NCCN2CCCCCC2)nn1
→ -0.7	x
Cc1cc(C)cc(N2C(=O)CS(=O)(=O)C2c2cccc([N+](=O)[O-])c2)c1 (configuration not stated)
→ x	-0.3
Nn1c(Cn2ccnc2)nnc1Cn1ccnc1
→ -0.65	-0.17
CC(C)COC(=O)Cc1c(O)c2ccccc2[nH]c1=O
→ -0.4	x
O=C1OCc2ccc([N+](=O)[O-])cc21
→ x	-0.72
CCc1c(C)sc(NC(=O)c2cc(C)on2)c1C#N
→ 1.1	-0.29
CC(OC(=O)C(C)N1C(=O)c2ccccc2C1=O)C(=O)c1ccccc1 (configuration not stated)
→ -0.75	-0.095
O=C(Nc1ncnc2sccc12)c1cccs1
→ -0.9	x
CC1CC(C)CN(S(=O)(=O)c2ccc(-n3cccn3)cc2)C1 (configuration not stated)
→ 0.6	-1.4
O=C(Cn1cnc2sc3c(c2c1=O)CCCC3)NCCC(=O)N1CCN(c2cccc(Cl)c2)CC1
→ x	1
CC1N(C)c2cc(CN3C(=O)c4ccccc4C3=O)ccc2C1(C)C (configuration not stated)
→ -1.8	x
CC(C)(C)c1ccc(Oc2ccc(NC(=O)Cc3cccs3)cn2)cc1
→ x	-0.36
N#Cc1cccc(CSc2nccc(=O)[nH]2)c1
→ -0.85	-0.68
O=C(c1ccc2nc(/C=C(\O)c3ccc(Cl)cc3)c(=O)[nH]c2c1)N1CCOCC1
→ 0	-0.075
O=C(c1ccc2cn[nH]c2c1)N1CCCC1
→ 0.9	0.21

New compounds follow:
Every second line gives: AID504770	CapD inh
CN(C)CCCCCCOC(=O)NCc1ccc(S(N)(=O)=O)cc1
→ x	0.07
CN(CC(=O)N1CCc2ccccc21)S(=O)(=O)c1ccc2nc(-c3ccccc3)[nH]c2c1
→ 0.75	0.36
Cc1cccc(NC(=O)c2cc(S(=O)(=O)NC3CCCCC3)ccc2F)c1C
→ x	-0.33
CN(C)c1ccc(-c2nc3cc(NC(=O)c4ccc(Cl)c([N+](=O)[O-])c4)ccc3o2)cc1
→ x	5.8
CCCOc1ccc(NC(=O)CC2C(=O)N(CC)C(=S)N2CCNC(C)=O)cc1 (configuration not stated)
→ -0.25	0.14
O=C(O)CC(Cn1cnnn1)c1ccccc1 (configuration not stated)
→ 0.15	-0.16
COC(=O)c1oc2ccc(OC)cc2c1NC(=O)CCCN1C(=O)c2ccccc2C1=O
→ 0.65	0.35
Cc1oc(-c2ccc(C(=O)NCCN3CCCC3)cc2)nc1CSc1ccc(Cl)cc1
→ -0.6	10
COc1ccc(S(=O)(=O)NCCSCc2cccs2)cc1
→ -0.2	-0.15
COc1ccc(C(C)N)cc1Br (configuration not stated)
→ -0.1	x
COC(CNC(=O)c1cc(S(=O)(=O)N2CC(C)CC(C)C2)ccc1F)OC (configuration not stated)
→ -0.1	-0.16
Nc1nc2ccccc2[nH]1
→ -1	x
N#C/C(=C\c1cn(CCC(N)=O)c2ccccc12)Sc1nc2ccccc2s1
→ 0.4	-0.67
O=C(O)CC(C(=O)O)c1cn(Cc2ccccc2)c2ccccc12 (configuration not stated)
→ -0.45	x
N#CCSc1nnc(-c2cccs2)n1-c1ccccc1
→ 2.5	-1.4
N#C/C(=C/Nc1cccc2ccccc12)c1nc(-c2ccccc2)cs1
→ -0.3	-0.075
CCN(C(=O)COc1ccc(Cl)cc1)C1CCCCC1
→ 2.4	-0.64
O=c1[nH]c2ccccc2c(O)c1Cc1ccccc1
→ -0.4	3.2
Cc1n[nH]c(=S)n(/N=C/C=C/c2ccccc2)c1=O
→ -0.35	-0.035
CCCn1c2ccccc2c2cnn(CC(=O)NC3CCN(Cc4ccccc4)CC3)c(=O)c21
→ 0.5	6.5
O=C(Cn1ncc2c3ccccc3n(Cc3ccccc3)c2c1=O)N1CCCCC1
→ 0.4	1.7
O=S(=O)(c1ccccc1)c1nnn2c1nc(Cl)c1ccccc12
→ 0.05	11
C/C(=N\N=C(N)N)c1ccc(Cl)cc1
→ -1.8	x
NC(=O)COc1ccc(C=C2C(=O)c3ccccc3C2=O)cc1
→ 3	-0.33
COc1ccc(-c2nc3c4cc(I)ccc4c4ccc(I)cc4c3[nH]2)cc1
→ x	0.68
CCOC(=O)C1=C(C)N=c2s/c(=C\c3ccc(O)c(OCC)c3)c(=O)n2C1c1ccc(OC)cc1OC (configuration not stated)
→ x	-0.055
COCc1nc2ccc(C)cc2c2c1C(=O)N(CCc1cc(OC)cc(OC)c1)C2=O
→ x	-0.56
O=C(O)Cc1nc(-c2ccncc2)n[nH]1
→ -1	x
CN(C)c1nc(Cl)nc(N(C#N)CN2C(=O)c3ccccc3C2=O)n1
→ -0.4	0.15
Cc1cc(NC(=O)Cc2cccc3ccccc23)n[nH]1
→ 0.55	2.4

Filtered by structure: the entries above containing a tert-butyl group (three)
Every second line gives: AID504770	CapD inh
CC(C)(C)c1ccc(C(=O)n2cc(Cl)cn2)cc1
→ -0.35	0.11
CC(C)CCn1c(CC(C)(C)C)nc2ccccc21
→ -0.35	-0.45
CC(C)(C)c1ccc(Oc2ccc(NC(=O)Cc3cccs3)cn2)cc1
→ x	-0.36

Further structures
Every second line gives: AID504770	CapD inh
COC(=O)C1=C(C)NC(=O)NC1c1cn(-c2ccccc2)nc1-c1ccc(Cl)cc1 (configuration not stated)
→ x	-0.17
CC1(C)CC(=O)C2=C(C1)NC1=C(C(=O)CC(C)(C)C1)C2c1ccc(Cl)cc1Cl
→ x	-0.65
O=S(=O)(NCCCO)c1ccc2c(c1)C(=NO)c1cc(S(=O)(=O)NCCCO)ccc1-2
→ x	7.4
Cc1noc2ncnc(N(C)CCO)c12
→ -1.1	-0.3
OC(c1ccccc1)c1nc2ccccc2n1-c1ccccc1 (configuration not stated)
→ 1.1	0.68
COC(=O)c1c(-c2ccccc2)csc1NC(=O)CCN1CC(C)OC(C)C1 (configuration not stated)
→ -0.45	-0.6
Nn1c(SCc2ccc(F)c3ccccc23)nc2ccccc2c1=O
→ 0.75	1.4
Cc1ccc(Sc2c(N)n(C)c(=O)[nH]c2=O)cc1
→ -0.45	x
CCOc1ccc(N(C)Cc2cc(=O)oc3ccc(OCC)cc23)cc1
→ -0.4	0.53
O=C(Nc1ccccc1)Nc1ccc(F)cc1
→ -0.1	0.085
CS(=O)c1ccc(Oc2cccc(F)c2C#N)cc1 (configuration not stated)
→ x	-0.15
Cc1nn(CCO)c(N)c1C1(O)C(=O)N(C)c2ccccc21 (configuration not stated)
→ -0.1	x
N#Cc1ccc(C(=S)N2CCOCC2)cc1
→ x	0.01
CCC(=O)Nc1cc2c(C)cc(=O)oc2cc1C
→ -0.15	-0.38
COc1ccc(-n2nc(C(=O)NCC(=O)N3CCCCC3)c3ccccc3c2=O)cc1
→ -2	0.86
CC(Nc1ccccc1)C(=O)O (configuration not stated)
→ 0.85	x
COc1ccc(N2CCN(C(=O)COC(=O)C3CC4CCCC(C3)C4=O)CC2)cc1 (configuration not stated)
→ -0.5	x
COc1nc(N(C)C)nc(N(CN2C(=O)c3ccccc3C2=O)S(=O)(=O)c2ccc(C)cc2)n1
→ -0.55	x
O=C1C2C3C=CC(C3)C2C(=O)N1c1ccncc1 (configuration not stated)
→ 0.45	0.7
Cc1cccc(NC(=O)CC23CC4CC(C2)CC(n2nnc(C)n2)(C4)C3)c1
→ -0.05	0.04
Cc1ccc(C(=O)CN2C3=NCCCN3c3ccccc32)cc1
→ x	0.54
CCN1C(=O)/C(=C/c2ccccc2)N(C)C1=S
→ -0.7	-3.6
O=C(NCC(=O)N1CCN(S(=O)(=O)/C=C/c2ccccc2)CC1)c1ccccc1F
→ -0.7	x
COC(=O)C1=C(NC(=O)c2ccco2)CCS1
→ -0.25	i
Cc1cc(C)nc(NS(=O)(=O)c2ccc(NC(=O)CN3C(=O)c4ccccc4C3=O)cc2)n1
→ x	0.38
CC(=O)N1CC2(NC(=O)c3ccccc3N2)c2ccccc21 (configuration not stated)
→ -0.1	0.11
O=S(=O)(c1ccccc1F)N(Cc1ccco1)Cc1nnc(-c2ccc(Cl)cc2)o1
→ -1	x
CCN(CC)c1ccc(/C=C2/C(=O)NN(c3ccc(C)cc3)C2=O)cc1
→ -1.5	-0.57
COC(=O)c1sc2cc(OC)ccc2c1Cl
→ 1.6	0.42
CCOC(=O)CSC(=S)Nc1cc(C(F)(F)F)cc(C(F)(F)F)c1
→ x	0.37
COC(=O)c1ccc(-c2ccco2)n1CC(=O)N1CCC(Cc2ccccc2)CC1
→ 0.2	2.9
CC(=O)N(Cc1ccccc1)Cc1cc2ccc(C)cc2[nH]c1=O
→ -0.45	6.3
O=C(NCCc1ccncc1)c1cccs1
→ x	0.27
CC(=O)Nc1ccc(SC(C)c2nc3ccccc3c(=O)[nH]2)cc1 (configuration not stated)
→ -2	x
O=C(Cn1cc(Br)ccc1=O)c1ccc2c(c1)OCCO2
→ 0.9	x
CC(=O)Nc1ccc(Br)c(C(F)(F)F)c1
→ -0.6	0.84

Compound activity deposited in PubChem BioAssay by ICCB-Longwood Screening Facility, Harvard Medical School.
